CtBP-E1A inh: qHTS Assay for Inhibitors of the CtBP/E1A Interaction. AlphaScreen GST-E1A/His-CtBP binding, 1536-well; hits give low values; control for the full effect not named in the record. activity change, % (test concentration not listed). 0.49% of 340,000 active; in the data active means activity change below about -65%; inconclusive means about -30% to -65%; inactive means above about -30%; further: on the % scale 0 is the no-effect control and ±100 the full control effect; compound concentration not given in the record
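Homogeneous bead-based format: GST-tagged E1A captured on glutathione donor beads, His-tagged CtBP on nickel acceptor beads; compounds precede bead addition by 2 h at 37 °C.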
D2 agonist: Beta-Arrestin HTS for Positive Allosteric Modulators of the Human D2 Dopamine Receptor: Agonists; DiscoveRx PathHunter D2 beta-arrestin, luminescence, 90 min; 100% = 57 uM dopamine signal; D(2) dopamine receptor (Homo sapiens), P14416; activation, % (concentration not given with the values); 0.084% of 360,000 active; in the data active = activation above about 40%; inconclusive = about 15% to 40%; inactive = below about 15%; further: compound concentration not given in the record; the text of the record calls up to 30% inactive
Target sequence (P14416 whole entry, looked up): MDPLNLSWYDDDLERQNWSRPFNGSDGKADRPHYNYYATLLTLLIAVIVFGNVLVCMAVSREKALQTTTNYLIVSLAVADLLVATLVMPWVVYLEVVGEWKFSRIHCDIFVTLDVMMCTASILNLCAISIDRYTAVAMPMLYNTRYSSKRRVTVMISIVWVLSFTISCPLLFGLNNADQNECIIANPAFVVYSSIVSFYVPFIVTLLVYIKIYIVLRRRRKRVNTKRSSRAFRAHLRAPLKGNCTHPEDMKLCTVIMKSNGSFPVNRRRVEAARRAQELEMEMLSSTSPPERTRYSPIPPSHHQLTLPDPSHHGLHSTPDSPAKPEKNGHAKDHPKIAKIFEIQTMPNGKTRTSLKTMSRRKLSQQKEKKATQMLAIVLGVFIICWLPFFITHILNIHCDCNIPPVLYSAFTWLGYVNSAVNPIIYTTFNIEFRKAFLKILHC
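DiscoveRx PathHunter D2 beta-arrestin cells (2,100/well) attached overnight, then compound-stimulated 90 min at 37 C in HBSS/10 mM HEPES/0.1% Tween-20 buffer; beta-galactosidase complementation read by luminescence after 1 h at ambient temperature. Dopamine 57 uM final (EC100) as control.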
Six1-Eya2 blk: qHTS Assay for Inhibitors of the Six1/Eya2 Interaction. Homeobox protein SIX1 (Homo sapiens) + Protein phosphatase EYA2 (Homo sapiens), …. activity change, % (test concentration not listed). AlphaScreen GST-Six1/His-Eya2 binding, biochemical; hits give low values; control for the full effect not named in the record. 0.56% of 360,000 active; in the data active = activity change below about -65%; inconclusive = about -30% to -65%; inactive = above about -30%; further: on the % scale 0 is the no-effect control and ±100 the full control effect; compound concentration not given in the record
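Six1/Eya2 binding was read as AlphaScreen signal after compounds were pinned into GST-Six1 plus His-tagged Eya2 (5X stock 250/500 nM) in pH 8.0 Tris/NaCl/TCEP buffer, beads added, then incubated 1 h, 37 C, dark.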
TRPML1 agonist: qHTS for Agonists of the Human Mucolipin Transient Receptor Potential 1 (TRPML1). Mucolipin-1 (Homo sapiens), Q9GZU1. TRPML1-expressing cells, Ca2+ dye fluorescence, FDSS; host cell line not named in the record; reference of the full effect not given here. activation, % (no concentration beside the values). 0.12% of 410,000 active. AID 624414, 2012; in the data active = activation above about 50%; inconclusive = about 30% to 50%; inactive = below about 30%; further: 0% is about no effect; the text of the record puts the active cut at 80%
Target sequence (Q9GZU1 whole entry, looked up): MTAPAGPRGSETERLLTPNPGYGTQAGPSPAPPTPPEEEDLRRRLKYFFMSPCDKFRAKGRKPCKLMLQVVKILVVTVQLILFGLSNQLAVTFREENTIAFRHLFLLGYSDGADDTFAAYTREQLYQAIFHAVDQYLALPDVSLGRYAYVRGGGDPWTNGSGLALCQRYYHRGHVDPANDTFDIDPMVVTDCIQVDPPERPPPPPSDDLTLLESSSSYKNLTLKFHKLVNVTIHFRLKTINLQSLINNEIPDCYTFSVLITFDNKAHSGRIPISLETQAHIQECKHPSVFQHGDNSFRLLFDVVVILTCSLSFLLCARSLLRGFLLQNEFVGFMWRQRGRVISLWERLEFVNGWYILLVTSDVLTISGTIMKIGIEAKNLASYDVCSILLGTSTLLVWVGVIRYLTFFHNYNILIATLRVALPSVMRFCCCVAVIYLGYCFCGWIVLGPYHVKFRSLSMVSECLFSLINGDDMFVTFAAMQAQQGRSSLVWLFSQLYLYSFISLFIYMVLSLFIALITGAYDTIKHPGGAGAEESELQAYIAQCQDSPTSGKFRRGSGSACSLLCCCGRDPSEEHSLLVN
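Calcium fluorescence on an FDSS kinetic reader gave the read-out. Tet-induced TRPML1-DL cells were plated overnight, dye-loaded (Ca8 with quencher, 45-90 min, room temperature, dark), then read 110 s after compound addition, and again 110 s after 4uM final 54-4 (EC80).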
D2 PAM: Beta-Arrestin HTS for Positive Allosteric Modulators of the Human D2 Dopamine Receptor: Potentiators. D(2) dopamine receptor (Homo sapiens), P14416. DiscoveRx D2 beta-arrestin cells, luminescence, 90 min; 100% = 57 uM dopamine signal. potentiation, % (test concentration not listed). 0.23% of 360,000 active; active = potentiation of 50% or more; inconclusive = 30% to 50%; inactive = 30% or less;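 further: compound concentration not given in the record; tested on top of an EC20 dose of dopamine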
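D2 cells co-treated with compound plus 50 nM dopamine (EC20) for 90 min at 37 deg C to detect potentiation. Beta-arrestin recruitment was read as enzyme-fragment luminescence after 1 h at ambient temperature. Full response was set by 57 uM dopamine.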
PINK1 expr mod: A Quantitative High throughput Screen to Identify Chemical Modulators of PINK1 Expression. 0.2% of 410,000 active. Potency, µM (highest dose often 76.6 µM), for inactives: at the highest dose activation (PINK1 increase), hits mostly activators. PINK1 immunofluorescence, high-content cytometry, 24 h; active = well fitted activation curve with a large enough effect; inconclusive = small, poorly fitted or top-dose-only effect; inactive = flat fitted curve, though single readings scatter; cell line not stated here;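 further: potency means the concentration at half of the fitted maximal effect; % of control where 0% means no effect; nearly all actives have a fitted effect of over 65% in size; a mitochondrial uncoupler was the plate control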
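Stable cell line treated 24 h with compounds at 5 concentrations (CCCP controls), then fixed and immunostained for PINK1 plus nuclear and cell stains; PINK1 immunofluorescence quantified by laser-scanning microplate cytometry.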
* marks the source's active call; other numbers are inactive results; u = inconclusive; x = not tested or not shown; & = joins results of further samples; [ ] = remark or other dose.

SMILES	CtBP-E1A inh	D2 agonist	Six1-Eya2 blk	TRPML1 agonist	D2 PAM	PINK1 expr mod
CC(C)CCSc1nc2c(c(=O)[nH]c(=O)n2C)n1CCc1ccccc1	-1	-2.3	-3	-0.1	-7	4.3%
Cc1cc(NC(=O)CCC(=O)N(CC2CCCO2)C(C(=O)NC2CCCC2)c2cccnc2)no1 (stereo unspecified)	2	-2.0	2	1.1	11	-3.2%
CC(C)(C)C(=O)O/N=C(\N)COc1cccc(Cl)c1	1	-1.7	7	-0.5	12	-1.3%
c1ccc(CN=C(NCc2ccccc2)NCc2ccccc2)cc1	-11	-4.1	2	0.4	-11	-2.3%
Cc1cc(NC(=O)CSc2ccc3nnc(-c4cccnc4)n3n2)no1	-3	-6.0	u	-0.9	-1	-0.8%
CC(C)N(Cc1nnc(-c2ccc(Cl)cc2)o1)C(=O)C1=COCCO1	2	2.9	2	0.0	2	0.7%
COc1cc(/C=N/NC(N)=O)cc([N+](=O)[O-])c1O	-27	-6.6	-24	0.9	-21	-1.3%
CCC(CC)C(=O)Nc1cccc(/C(C)=N/NC(=O)c2c(Br)cnn2C)c1	-4	-2.5	-3	-0.2	-7	2.2%
O=C(O)c1ccccc1-c1ncc(-c2ccccc2)o1	-1	-1.5	4	2.4	-1	3.5%
C/C(CCc1oc2ccc(Br)cc2c1-c1ccc(C)o1)=N/O	-10	-0.4	-24	-0.5	5	1.8%
CCOC(=O)[C@@H](CCc1ccccc1)N[C@H](C)C(=O)N1[C@H](C(=O)O)C[C@@H]2CCC[C@@H]21	-5	-8.1	-13	0.1	4	1.2%
CC1CCN(CCCN2C(=O)C3C(C(=O)Nc4cccc(Cl)c4)C4C=CC3(O4)C2C(=O)NC2CCCCC2)CC1 (stereo unspecified)	4	0.5	-2	-0.2	-11	4.7%
O=C(Nc1nccs1)c1csc([C@H]2C[C@H](O)[C@@H](CO)O2)n1	7	-1.1	5	0.4	-11	0.2%
Cc1cc(C(=O)NCCCN2CCCC2=O)no1	3	-2.0	4	2.5	-5	8.5%[38.3 µM]
COCCN1C(=O)c2ccccc2C(C(=O)N2CCN(c3ccccn3)CC2)C1c1ccc(F)cc1 (stereo unspecified)	-2	-4.7	4	1.5	-6	1.3%
CC1(C)C2CCC1(C)C(OC(=O)c1ccccc1C(=O)O)C2 (stereo unspecified)	7	-0.3	3	0.7	0	-1.5%
COc1cccc(NC(=O)N(CCCN2CCOCC2)C(C)c2cc3ccccc3o2)c1 (stereo unspecified)	40	0.9	16	1.2	-16	3.6%[38.3 µM]
COC(=O)c1ccccc1C(=O)N1CCCC(C(=O)c2cc(F)ccc2F)C1 (stereo unspecified)	-3	-4.4	10	-0.9	-1	2.0%
CCN(C(=S)NC(=O)CCc1ccccc1)c1ccccc1	-5	-3.4	2	-0.2	-11	0.0%
COc1ccccc1CCNS(=O)(=O)CCNC(=O)c1ccc2c(c1)OCO2	4	-6.4	-4	1.0	-14	-3.8%
C=CCc1ccccc1OCC(O)CN1C(=O)c2ccccc2C1=O (stereo unspecified)	10	1.5	13	1.7	-3	-0.9%
COC(=O)[C@@H](NC(=O)N(C1CCCCC1)C1CCCCC1)C(C)C	2	-3.3	1	0.5	-8	0.5%[38.3 µM]
CC(C)(C)c1ccc(CC(=O)N2CCC2(C)C(=O)NCc2ccc3c(c2)OCO3)cc1 (stereo unspecified)	1	1.7	-2	-0.4	-11	0.5%
O=C(c1ccc(S(=O)(=O)N2CCOCC2)cc1)N1CCc2ccccc2C1	2	-2.6	2	-0.5	-11	0.6%
O=C(Cc1n[nH]c(=O)[nH]c1=O)N/N=C/c1c(O)ccc2ccccc12	-68*	-3.1	-87*	-0.4	-15	9.9%
Cc1ccc(S(=O)(=O)N2C[C@H]3C(=O)C[C@@H](c4cccc(Cl)c4)N(S(=O)(=O)c4ccc(C)cc4)[C@H]3C[C@H]2c2ccccc2)cc1	-1	-6.5	-1	0.6	4	2.7%
CCOC(=O)c1c(-c2ccccc2)oc2ccc(OCC(=O)O)cc12	x	-7.3	u	-0.3	-13	-0.9%
O=C(COC(=O)CCN1C(=O)/C(=C\C=C\c2ccccc2)SC1=S)Nc1ccc(Br)cc1	1	0.2	-15	0.1	3	2.8%
CC(=O)O/N=C(/c1nonc1N)N(C)C	-10	2.2	1	0.6	3	0.0%
CCOC(=O)C1=C(C)NC(=O)C(C(N)=O)C12CCCCC2 (stereo unspecified)	4	-1.9	5	-0.3	-7	1.1%

Compound profiles, from the list above. Order of screens: CtBP-E1A inh	D2 agonist	Six1-Eya2 blk	TRPML1 agonist	D2 PAM	PINK1 expr mod
Shown for O=C(Cc1n[nH]c(=O)[nH]c1=O)N/N=C/c1c(O)ccc2ccccc12 = -68*	-3.1	-87*	-0.4	-15	9.9%
Shown for CC(C)(C)c1ccc(CC(=O)N2CCC2(C)C(=O)NCc2ccc3c(c2)OCO3)cc1 (stereo unspecified) = 1	1.7	-2	-0.4	-11	0.5%
Shown for COc1ccccc1CCNS(=O)(=O)CCNC(=O)c1ccc2c(c1)OCO2 = 4	-6.4	-4	1.0	-14	-3.8%
Shown for COC(=O)[C@@H](NC(=O)N(C1CCCCC1)C1CCCCC1)C(C)C = 2	-3.3	1	0.5	-8	0.5%[38.3 µM]

(cont.)
SMILES	CtBP-E1A inh	D2 agonist	Six1-Eya2 blk	TRPML1 agonist	D2 PAM	PINK1 expr mod
C=CCCN(C(CC(C)C)C(=O)OC)S(=O)(=O)c1cc(Br)ccc1Br (stereo unspecified)	0	-1.3	1	18&11	-11	13%
CC(=O)Nc1ccc(NC(=O)C(C)Sc2n[nH]c(=O)n2Cc2ccccc2)cc1 (stereo unspecified)	-1	-5.9	12	0.3	-2	1.9%
CC1CCCCC12NC(=O)N(CC(=O)N1CCc3ccccc3C1)C2=O (stereo unspecified)	-3	-1.1	11	1.2	15	0.1%
O=C(Nc1cccc2ccccc12)N1N=CCC1c1ccccc1 (stereo unspecified)	-1	-2.3	0	0.3	-11	-0.8%
Clc1ccc(OCc2nc3ccccc3[nH]2)cc1	-1	-3.0	6	-0.1	-14	0.3%
CC(C)CN(C(=O)COC(=O)c1ccc2ccccc2n1)C1CCS(=O)(=O)C1 (stereo unspecified)	-11	-1.5	3	-0.6	-2	-0.3%
COc1ccc(C(=S)N2CCN(C)CC2)cc1	5	-1.9	2	0.1	-32	-1.1%
CC(=O)/C(=N/Nc1ccccc1)N1CCOCC1	5	-1.5	-1	-0.1	0	11%[38.3 µM]
COCCn1c(N2CCN(c3ccc(OC)cc3)CC2)nc2c1c(=O)[nH]c(=O)n2C	0	-4.3	24	-1.3	0	-1.2%
CCn1cc(C(=O)NC2CCCCC2C)c(=O)c2ccc(C)nc21 (stereo unspecified)	-2	-2.1	-1	-0.5	-10	1.3%
COc1ccc(NC(=O)COC(=O)c2cccc(S(=O)(=O)N3CCCCC3)c2)c(OC)c1	-20	-1.8	-6	1.8	-5	-0.6%
CSc1nnc2c(n1)OC(c1ccc(C(=O)O)cc1)N(C(C)=O)c1ccccc1-2 (stereo unspecified)	0	-2.8	23	0.0	-2	-0.5%
N#Cc1ccc(CN2CCN(C(=O)c3ccc(S(=O)(=O)NCc4ccco4)cc3)CC2)cc1	x	-0.5	5	0.3	0	-1.5%
COc1ccc(Br)cc1/C=N/NC(=O)CNC(=O)/C=C/c1ccccc1	-17	-1.6	-8	3.1	-41	10%
CC(=O)C1=C(O)C(=O)N(c2ccc(Br)cc2)C1c1ccc(Br)cc1 (stereo unspecified)	9	-3.5	-1	-0.2	-1	-0.2%
CCOCc1nnc(NC(=O)CSc2ccccc2)s1	-1	-2.8	5	-0.1	-11	-0.7%
COc1cccc(C(=O)Nc2ccc3nc4n(c(=O)c3c2)CCCCC4)c1	-2	2.3	-20	1.2&1.0	4	5.7%&1.0%
COc1cc(OC)c2c(c1)C(=O)OC2	0	2.0	5	0.6	-5	4.8%
COc1ccc(NC(=O)CCNC(=O)c2ccccc2Cl)cc1S(=O)(=O)N1CCCCC1	0	-1.1	0	-0.8	-4	1.0%
CC(C)c1ccc(C(=O)N2CCN(CCO)CC2)cc1	20	-4.6	3	-0.4	-5	5.6%
COc1ccc(NC(=O)CSc2nnc(Cn3c(=O)sc4ccccc43)n2C)cc1OC	3	-1.9	-2	1.4	-2	1.8%
CCOc1ccc(CCNC(=O)C2CCN(S(=O)(=O)c3ccc(C)cc3)CC2)cc1OCC	-12	-1.5	-5	2.7	1	0.1%
CC(=O)Nc1ccc(OCC(=O)c2ccc(C)cc2C)cc1	4	-0.1	9	-0.3	-6	3.5%
Cc1ccccc1SCC(=O)Nc1cccc(C#N)c1	1	-3.3	0	0.3	-15	0.7%
COc1ccc(S(=O)(=O)NCC2CCCN(Cc3cccnc3)C2)cc1 (stereo unspecified)	-16	-9.5	-7	-0.1	-3	0.0%
COc1ccccc1NC(=O)CSc1nc(N)c(C#N)cc1C#N	-10	1.3	-10	-0.3	-6	-2.9%
COc1ccc(C)cc1S(=O)(=O)N(C)CC(N)=O	12	0.6	0	-0.6	9	0.6%
COc1ccc(-c2noc(C3CCCN(S(=O)(=O)c4cccc(Cl)c4C)C3)n2)cc1OC (stereo unspecified)	1	2.5	0	-0.3	3	-3.2%[38.3 µM]
O=C(Nc1ccc(Nc2ccccc2)cc1)c1ccccc1F	-27	-1.0	-23	4.5	-11	-0.7%
CC(C)(C)S(=O)(=O)c1ccccc1C(=O)O	6	1.0	0	-0.5	-16	0.0%
O=C(COC(=O)C1COc2ccccc2O1)NC(=O)NC1CCCCC1 (stereo unspecified)	2	-0.7	7	-1.0	-13	-0.7%
N#Cc1ccc(C23CC4(C2)[C@H](CN(Cc2ccc(-c5ccccc5)cc2)[C@@H]4c2ccccc2)C3c2ccc(C(F)(F)F)cc2)cc1 (stereo partly specified)	-4&1	-4.1	9	-0.6	-15	4.4%
O=C(Nc1ccccc1)c1nc[nH]c1C(=O)NCCNC(=O)c1[nH]cnc1C(=O)Nc1ccccc1	-11	u	-11	-0.8	61*	-1.1%
O=C(c1ccc(Cl)cc1)c1cnc(Nc2ccccc2)s1	9	-1.7	10	-0.1	-14	10%[38.3 µM]
O=C1CCc2cc(S(=O)(=O)NCCCC(=O)N3CCN(Cc4ccc5c(c4)OCO5)CC3)ccc2N1	x	5.1	-1	0.2	-8	-1.0%
CCSc1nnc([C@H](Cc2c[nH]c3ccccc23)NC(=O)OC(C)(C)C)o1	0	-3.5	-1	-0.4	-2	-2.7%
CCC(CO)N=CC1=C(O)CC(c2ccccc2)CC1=O (stereo unspecified)	-1	2.3	2	0.6	-4	0.0%
Cc1cc(C)n(CC(=O)Nc2ccccc2)n1	-3	-1.3	3	0.9	-5	-0.5%

Screening results from PubChem BioAssay.
